HSD17B inh = qHTS Assay for Inhibitors of HSD17B4, hydroxysteroid (17-beta) dehydrogenase 4; 3-hydroxyacyl-CoA dehydrogenase type-2 (Homo sapiens), Q99714; recombinant HSD17B10, NADH fluorescence kinetic; many of its hits are not listed in these tables; Potency, µM (titrated, usually from 57.1 µM), for the others: at the top dose activity change, negative = inhibition, most hits filed as inhibitors; actives 7.6% (n = 75,000); active = well fitted inhibition curve with a large enough effect; inconclusive = small, poorly fitted or top-dose-only effect; inactive = no such curve, though single readings can be large or run the other way;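 note: the protocol describes HADH2 (HSD17B10) and not the HSD17B4 of the title; nearly all actives have a fitted effect of over 70% in size; most hits overshoot -100% by far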
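Enzyme plus compound, 15 min room temperature; substrate mix added (NAD+ 1 mM, beta-hydroxybutyryl-CoA 90 uM final); plates read kinetically for NADH fluorescence. HADH2 was His-tagged, E. coli-derived, 20 nM.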
Starred values were filed as active, the others as inactive; ? = inconclusive; [ ] = another dose, or the depositor's remark. % is set by controls: 0 for no effect and ±100 for the full control effect; potency is the fitted concentration of half-maximal effect. These rows are one share of the data. The share of hits here may be higher or lower than overall.

smiles	HSD17B inh
COc1cccc(C2=NOC(C(=O)NCCN3CCOCC3)C2)c1 (centres undefined)	3%
O=C(OCC(=O)c1ccco1)c1ccc2ncsc2c1	9%
O=C(Nc1nccs1)C1C2CC3OC(=O)C1C3C2 (centres undefined)	19%
Cc1c(NC(=O)Cn2nc(C(F)(F)F)c3c2CCCC3)c(=O)n(-c2ccccc2)n1C	10%
COc1cc(C2N(c3ccc(F)cc3)C(=O)C3CCCN32)cc(OC)c1OC (centres undefined)	1%
O=C(COC(=O)CCC1CCCC1)Nc1ccc(Cl)cn1	4%
CCc1c(C)nc2ncnn2c1NCCc1ccc(OC)c(OC)c1	-10%
CCN1CCCC1CNC(=O)COc1cc(=O)n(C)c2ccccc12 (centres undefined)	-25%
CCN(CC)c1ccc(C2CC(=O)Nc3cc(OC)c(OC)cc32)cc1 (centres undefined)	-1%
Cc1csc(SCC(=O)Nc2ccc(S(=O)(=O)N3CCCC3)cc2)n1	-1%
Cc1c(/C(O)=C2\C(=O)C(=O)N(CCCN(C)C)C2c2ccncc2)cnn1-c1ccccc1 (centres undefined)	-9%
C=CCn1sc(N)c(C(=O)OCC)c1=S	-3%
CC(C)(C)C1=Nn2c(nnc2-c2ccccc2F)SC1	7%
O=C(N[C@@H](Cc1ccccc1)C(=O)CCl)OCc1ccccc1	?
CCc1ccccc1NC(=O)c1cccs1	6%
COc1cccc(CNC(=O)C2CCN(S(=O)(=O)c3ccccc3)CC2)c1	15%
Cc1cc(C)n(-c2ccc(C(=O)OCC(=O)c3c(N)n(C)c(=O)n(C)c3=O)cc2)n1	7%
COCCNC(=O)C(c1ccc(C)o1)N(C(=O)c1snc(C(N)=O)c1N)c1cc(C)cc(C)c1 (centres undefined)	?
CCOC(=O)CC(=O)CSc1nc2ccccc2c(=O)n1-c1ccc(C(=O)N2CCOCC2)cc1	7%
COC(=O)C1C(=O)c2c([nH]c(C(=O)OCC3CCCO3)c2C)CC1C (centres undefined)	5%
COCC(C)NCc1ccc(C)cc1C (centres undefined)	8%
O=S(=O)(NCC1CCCO1)c1cccc(S(=O)(=O)N2CCCC2)c1 (centres undefined)	16%
COC(=O)Cc1c(C)c2ccc(OCC(=O)NCc3ccc4c(c3)OCO4)cc2oc1=O	?
Cc1cc(N2C(=O)C3C4c5ccccc5C(c5ccccc54)C3C2=O)no1 (centres undefined)	8%
O=C(O)COc1ccc2c(-c3ccccc3)cc(=O)oc2c1	-16%
COc1ccc2oc(C(=O)C3CC3)c(N)c2c1	?
COc1ccccc1-c1cncnc1-n1ccnc1	?
CCOC(=O)CC1=CC(=O)Nc2ccccc2N1	4%
CC(C)COC(=O)n1ccc(C(=O)N2CCCCC2)n1	3%
N#Cc1nc(-c2ccco2)oc1N1CCOCC1	25µM*
CC(=O)c1ccc2c3c(ccc(O)c13)CC2	-2%
O=S(=O)(c1ccc(Cl)cc1)N1CCN(C2CCCCCC2)CC1	-2%
O=C(OC1CCOC1=O)c1ccc2ccccc2n1 (centres undefined)	-5%
CCS(=O)(=O)N1CCC(NC(C)=O)(c2ccccc2)CC1	4%
Cc1nonc1NC(=O)N1CCCC1	2%
Cc1cccc(NC(=O)c2oc3ccc(S(=O)(=O)N4CCOCC4)cc3c2C)c1C	?

Entries listed so far that have a Cl atom (3):
smiles	HSD17B inh
O=C(COC(=O)CCC1CCCC1)Nc1ccc(Cl)cn1	4%
O=C(N[C@@H](Cc1ccccc1)C(=O)CCl)OCc1ccccc1	?
O=S(=O)(c1ccc(Cl)cc1)N1CCN(C2CCCCCC2)CC1	-2%

Remaining list, next part.
smiles	HSD17B inh
COc1ccc(OC)c(C(c2nnnn2CCC(C)C)N2CCN(C(=O)c3ccco3)CC2)c1 (centres undefined)	6%
O=C(CSc1nnc(C23CC4CC(CC(C4)C2)C3)o1)Nc1ccc(N2CCOCC2)c(Cl)c1	10%
CCN(CC)CCOc1ccc2c(c1)C(=O)c1cc(OCCN(CC)CC)ccc1-2	4%
COc1cccc(OC(=O)CSc2nnc(-c3ccccc3Br)o2)c1	0%
COc1cc(C)nc(N2CCC(C(N)=O)CC2)n1	-8%
C[C@@H]1/C=C\CC(=O)OC[C@H]2O[C@@H](C=C[C@@H]2O)[C@H](C)/C=C\CC(=O)OC1	-3%[11.4 µM]
CCCn1c(-c2ccc(F)cc2)nc2c(NCCN(CC)CC)nc(C)nc21	25µM*
CCC(CC)C(=O)Nc1nnc(-c2cccs2)s1	3.2µM*
CN(C)c1ccc(C(=O)OCC(=O)Nc2ccc(S(N)(=O)=O)cc2)cc1	?
CC(=O)c1ccc(OC(C)C)c(CN2CCCCC2)c1	4%
CN1CCN(C(=O)C(Cc2ccccc2)NS(=O)(=O)c2ccc3c(c2)CCC(=O)N3)CC1 (centres undefined)	6%
COc1ccc(-c2cc(C(=O)N3CCN(C(c4ccccc4)c4ccccc4)CC3)no2)cc1OC	-30%
C[C@@](Cc1ccccc1)(NC(=O)CN)c1ccccc1	-7%
CC(=O)Nc1cccc(NC(=O)c2c(-c3c(Cl)cccc3Cl)noc2C)c1	2%
CCCc1nnc(NC(=O)CCC(=O)N2CCCCCC2)s1	12%
CN=C(Nc1cc(C)nn1-c1ccccc1)c1ccc(F)cc1	-7%
O=C(Cn1cc2c(n1)CCCCC2)NC1CCCCCC1	6%
FC(F)(F)c1ccc(N2CCOCC2)c(NC2=NCCCCC2)c1	12%
CC(C)CNc1nc(N)[nH]c(=O)c1NC=O	11%[11.4 µM]
Cc1cccn2c(=O)c3cc(C(=O)NCC4CCCO4)n(C)c3nc12 (centres undefined)	3.2µM*
COc1ccc(N2CCN(C(c3nnnn3CCc3ccccc3)C(C)C)CC2)cc1 (centres undefined)	-2%
COCCn1c(=O)cnc2cnc(N3CCOCC3)nc21	-1%
Cc1sc2nc(SCC(=O)N3CCN(CCO)CC3)n(-c3ccccc3)c(=O)c2c1C	2%
CCOc1ccc(C(=O)Nc2cc(OC)ccc2OC)cc1	-11%
COc1ccc(N2CC(C(=O)NC3CC(C)(C)NC(C)(C)C3)CC2=O)cc1 (centres undefined)	7%
CC(C(=O)N1c2ccccc2Sc2ccccc21)n1nnc(-c2cccs2)n1 (centres undefined)	6%
CC(=O)c1ccc(NC2CC(O)C(O)CO2)cc1 (centres undefined)	-1%
CC(=O)Nc1ccc(S(=O)(=O)N2CCN(c3ccc(C)c(Cl)c3)CC2)cc1	4%
CN(CCO)c1ncnc2nc[nH]c12	32µM*
c1ccc2scnc2c1	2%
C=CCn1c(=O)[nH]c2cc(C(=O)N3CCN(c4cccc(Cl)c4)CC3)ccc2c1=O	-26%
CNS(=O)(=O)c1cccc(C(=O)OCC(=O)c2cc(C)n(-c3ccc4c(c3)OCO4)c2C)c1	-16%
CC(Oc1ccc(Cl)cc1Cl)c1nc(-c2ccc(NC(=O)c3cccnc3)cc2)no1 (centres undefined)	26%
O=C(NCc1cccnc1)C(C(=O)c1ccc(F)cc1)n1ccccc1=O (centres undefined)	8%
Cc1ccc2[nH]c(=O)c(CN(CCO)Cc3nnnn3CCc3ccccc3)cc2c1	?
CN1CCCC(C(=O)C(C#N)c2ccccc2)C1 (centres undefined)	7%

Next part, starting with the last 3 of the part before.
smiles	HSD17B inh
O=C(NCc1cccnc1)C(C(=O)c1ccc(F)cc1)n1ccccc1=O (centres undefined)	8%
Cc1ccc2[nH]c(=O)c(CN(CCO)Cc3nnnn3CCc3ccccc3)cc2c1	?
CN1CCCC(C(=O)C(C#N)c2ccccc2)C1 (centres undefined)	7%
c1ccc(CNC2=NCCC2)nc1	3%
Cn1c(Cn2c(=O)sc3ccccc32)nnc1SCC(=O)NC1CCCCC1	1%
Cn1nnc2cc(C(=O)N3CCN(c4ccccc4)CC3)ccc21	1%
CCOc1cc2[nH]c(=S)n(CC3CCCO3)c(=O)c2cc1OCC (centres undefined)	-11%
NC(=O)NC(CC(=O)OCC(=O)NC(=O)NCc1ccco1)c1ccc(Cl)cc1 (centres undefined)	-7%
Cc1cc(C(=O)CN2C(=O)NC(C)(c3cccc(Br)c3)C2=O)c(C)n1Cc1ccco1 (centres undefined)	-9%
S=C(Nc1ccccn1)c1ccccn1	-13%
COc1ccc2cc(CN(C(=O)Nc3ccccc3)C3CCCC3)c(=O)[nH]c2c1	-2%
O=C(NCc1cccc(Cl)c1)c1cccnc1	5%
O=S(=O)(Nc1ccc(-c2cn3ccsc3n2)cc1)c1ccc2c(c1)OCCO2	-4%
CCC(=O)Nc1cccc(NC(=O)CN2CCN(c3ccccc3OC)CC2)c1	8%
CCOC(=O)c1cnc2nc(C)[nH]n2c1=O	-3%
COc1ccc(N(CC(=O)N2CCN(Cc3ccc4c(c3)OCO4)CC2)S(C)(=O)=O)cc1OC	-2%
CCn1nnnc1SCC(=O)NCc1cccs1	20%
CCOC(=O)c1ccc(NC(=O)N2CCc3ccccc32)cc1	-14%
COCCn1nnnc1C(c1ccc(OC)cc1)N1CCC(C)CC1 (centres undefined)	8%
O=C1NCC2=C1C(c1ccccc1)Nc1ccccc1N2 (centres undefined)	-2%
Cc1sc(NC(=O)CSc2nnc(COc3ccc(Cl)cc3)n2C)c(C#N)c1C	-10%
CCOC(=O)c1nnn(-c2nonc2N)c1CN1CCCCCC1	-2%
COC(=O)c1ccccc1NC(=O)Cn1c(=O)oc2ccc(Cl)cc21	25µM*
Cc1ccc(-n2ncc3c(=O)n(CC#N)cnc32)cc1C	-2%
COc1ccccc1NC(=O)Oc1ccc(NC(=O)c2ccco2)cc1	0%
CCOc1ccccc1C1NC(=O)NC(C)=C1C(=O)OC1CCCC1C (centres undefined)	-3%
O=C(O)C1=C(C(=O)N2CCN(C(=O)c3ccco3)CC2)CCCC1	9%
Cc1cc(C)nc(Nc2nc(C)c3cc4c(cc3n2)OCO4)n1	16µM*
c1ccc(-n2nc3c(ccc4cnnc43)[nH]2)cc1	3.2µM*
CCN(CCCNC(=O)Cn1cc2c(n1)CCCC2)c1cccc(C)c1	-3%
Cc1cc(OCCOCCN(C)CCO)cc(C)c1Cl	-3%
CCSc1nnc(-c2ccc(Cl)cc2Cl)o1	-14%
COC(=O)[C@@]1(Cc2ccc(F)cc2)[C@H]2c3cc(C(=O)N(C)C)n(Cc4nc5ccccc5[nH]4)c3C[C@H]2CN1C(=O)c1ccccc1	?
CCOC(=O)N1CCN(C(=O)c2cc3c(ccc4ccccc43)oc2=O)CC1	32µM*
CCCCCCOc1ccccc1C(N)=O	1%
Nc1ccccc1N=Nc1c(S(=O)(=O)O)cc2cc(S(=O)(=O)O)cc(O)c2c1O	-11%[11.4 µM]
Fc1ccc(C(c2nnnn2C2CCCC2)N2CCN(Cc3ccncc3)CC2)cc1 (centres undefined)	-5%
CCOc1ccc(-c2nnc3ccc(SCC(=O)NCc4ccco4)nn23)cc1	?
O=C(CSC1=NCCS1)Nc1ccccc1F	-16%
CCOC(=O)N1CCN(C/C(C)=C/c2ccccc2)CC1	-2%
O=c1cnc2cncnc2n1Cc1ccc(F)cc1	2%
O=C(COC(=O)C1CCCN1C(=O)c1cccs1)Nc1ccc2c(c1)OCO2 (centres undefined)	11%
Cc1cc(O)c(C=O)c2c1C(=O)Oc1c(C)c(O)c3c(c1O2)C(O)OC3=O (centres undefined)	-18%
CCC(C)(C)NC(=O)C(c1ccc(F)cc1)N(Cc1ccco1)C(=O)c1cnccn1 (centres undefined)	5%
Cc1ccc(Oc2nc3ccccc3n3c(C)nnc23)cc1	9%
COc1cc(C(=O)NCc2nnc(SCC(=O)N3CCC(C)CC3)o2)cc(OC)c1OC	2%
CCOCCCNC(=O)c1ccc(OC)cc1	0%
O=C(O)c1ccc(CSc2nnc(-c3ccncc3)n2CC2CCCO2)cc1 (centres undefined)	1%
Cc1ccc(N2CC(C(=O)NC3=NCCS3)CC2=O)cc1C (centres undefined)	12%
CCn1c(C(=O)NCc2cccnc2)cc2sc(Cl)cc21	0%
CCCCN(CCCNC(=O)CN1C(=O)COc2ccccc21)c1ccccc1	2%
CCc1c(C)[nH]n(CCC#N)c1=O	1%
O=C(NC1CC1)c1ccc(S(=O)(=O)NCC2CCCCC2)cc1	10%
O=C1CSC(c2ccco2)N1 (centres undefined)	11%
NC(=O)Nc1nc2ccccc2[nH]1	1%
O=C(O)CCC(=O)N1CCc2cc(S(=O)(=O)N3CCC(Cc4ccccc4)CC3)ccc21	2%
Cc1ccc(NC(=O)CSc2nnc(CCCCCNC(=O)OC(C)(C)C)o2)c(C)c1	12%
O=C1CN(CC(=O)N2CCCCC2)c2ccccc2O1	-11%
COC(=O)C1=C(C)N(CCc2ccccc2)C(=O)C1	-2%

Compound activity: PubChem BioAssay, National Center for Advancing Translational Sciences (NCATS)
